AID923: qHTS Assay for Allosteric/Competitive Inhibitors of Caspase-1: Spectroscopic Profiling in AFC Spectral Region | compound fluorescence, AFC spectral region (405/520 nm); almost no hit is shown here | Potency, µM (highest dose often 57.5 µM), for the others: top-dose fluorescence increase, usual class: activators | 75,000 tested, 1.1% active; active = well fitted activation curve with a large enough effect; inconclusive = small, poorly fitted or top-dose-only effect;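 note: potency is the fitted concentration of half-maximal effect; 0% is about no effect; scaled to a free AFC standard on each plate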
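Compound autofluorescence profiled at 405 nm ex/520 nm em during kinetic caspase 1 run (50 nM enzyme, 5 uM Ac-WEHD-AFC, HEPES pH 7.5, 10 mM DTT). Titration up to 57 uM; baseline from regression intercept, normalized to AFC standard curve.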
Resorufin fluor: compounds fluorescent in resorufin spectral region. Compound fluorescence, resorufin region 547/598 nm, buffer; hits give high values. max dye-equivalent concentration, M. 59,000 tested, 0.04% active. AID 588; active = above 10 nM dye equivalent; inconclusive = 1 to 10 nM; inactive = 1 nM or less; a few of its hits are not listed in these tables; note: highest value over a series up to 38 µM
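Read-out: intrinsic compound fluorescence at ex 547/em 598 nm after 15 min at RT in pH 8.0 Tris (100 mM). Values expressed as resorufin-equivalent concentration from per-plate standard series.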
A647 autofl: compound autofluorescence in A647 spectral region; Compound fluorescence, A647 channel (570/671 nm), Tris buffer; max dye-equivalent concentration, M; 59,000 tested, under 10 active; active means above 1 µM dye equivalent; inconclusive means 0.1 to 1 µM; inactive means 0.1 µM or less;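 note: values scaled relative to a standard on each plate; highest value over a series up to 38 µM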
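Fluorescence read (570 nm ex, 671 nm em) after 15 min RT incubation of compounds in 100 mM Tris buffer, pH 8.0; values expressed as dye-equivalent concentration against a six-point A647 standard series on each plate.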
A488 fluor: compound autofluorescence in A488 spectral region | compound autofluorescence, A488 spectral region, dye equivalency; hits give high values | max dye equivalency, M | 59,000 tested, 0.1% active; active = above 10 nM dye equivalent; inconclusive = 1 to 10 nM; inactive = 1 nM or less; about half of its hits are not listed in these tables;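 note: highest value over a series up to 38 µM; compound alone in buffer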
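Read-out: relative fluorescence at 480/540 nm, expressed as Alexa 488 dye-equivalent concentration from a six-point A488 standard included per plate. Conditions: 100 mM Tris, pH 8.0; 15 min incubation, room temperature.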
TSHR agonist: TSH receptor (human) agonism; 73,000 tested, 0.48% active; HEK293-CNG-TSHR cells (CNG channel as cAMP sensor), membrane potential dye, cAMP; Potency, µM (highest dose often 57.1 µM), for inactives: top-dose activation, most hits filed as activators; active = well fitted activation curve of enough size with the parental cells flat; inconclusive = any curve in the parental cells; inactive = parental cells flat and receptor cells flat or falling; note: potency is the fitted concentration of half-maximal effect; % of control where 0% means no effect; weak receptor curves with flat parental cells got no call and are not listed
Target sequence (P16473 whole entry, looked up): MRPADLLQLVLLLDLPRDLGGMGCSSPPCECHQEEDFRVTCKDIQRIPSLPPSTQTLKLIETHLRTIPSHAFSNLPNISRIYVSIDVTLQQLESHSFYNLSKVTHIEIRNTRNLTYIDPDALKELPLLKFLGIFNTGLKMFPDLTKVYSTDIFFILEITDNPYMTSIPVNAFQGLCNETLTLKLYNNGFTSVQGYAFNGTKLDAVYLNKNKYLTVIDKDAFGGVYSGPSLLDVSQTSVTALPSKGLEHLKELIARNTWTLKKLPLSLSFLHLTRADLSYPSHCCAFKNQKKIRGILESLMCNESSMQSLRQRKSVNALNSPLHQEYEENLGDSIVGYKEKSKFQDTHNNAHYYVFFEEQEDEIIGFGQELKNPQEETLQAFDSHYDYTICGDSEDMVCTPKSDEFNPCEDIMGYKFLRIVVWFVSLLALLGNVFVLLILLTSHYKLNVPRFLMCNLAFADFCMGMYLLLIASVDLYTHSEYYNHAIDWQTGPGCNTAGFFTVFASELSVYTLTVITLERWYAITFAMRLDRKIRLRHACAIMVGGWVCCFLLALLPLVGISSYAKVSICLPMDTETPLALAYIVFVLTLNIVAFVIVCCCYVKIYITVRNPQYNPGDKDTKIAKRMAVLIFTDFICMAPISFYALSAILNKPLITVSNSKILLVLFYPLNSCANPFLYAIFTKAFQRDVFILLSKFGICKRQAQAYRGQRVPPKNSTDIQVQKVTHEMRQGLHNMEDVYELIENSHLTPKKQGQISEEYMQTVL
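HEK 293 cells stably expressing TSHR and a cAMP-gated CNG channel; parental CNG-only cells as counterscreen. Cells preloaded 60 min with membrane potential dye plus 100 uM RO 20-1724, then compound 30 min; fluorescence read at 590 nm.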
Active calls of the source: *; i = inactive; u = inconclusive; x = no result given; & = joins results of further samples; [ ] = another dose, or the depositor's remark. These rows are one share of the data; rates above refer to the full screens.

Results follow in this order: AID923 | Resorufin fluor | A647 autofl | A488 fluor | TSHR agonist
- CS(=O)(=O)N1CCC2(CC1)CN(c1ccncc1)C2
 : 4.6% | i | 3.3e-09 | i | 0%
- CC(=O)c1ccc(N2CCN(C(=O)c3cc4c(=O)n(C)c5ccccc5c4n3C)CC2)cc1
 : -1.0% | x | x | x | -3%
- Cc1ccc(S(=O)(=O)NC(CC(=O)NCC2CCCO2)c2ccco2)cc1 (configuration not stated)
 : -0.1% | i | 1.5e-08 | i | -1%[11.4 µM]
- Cc1ccc(C(=O)N2CCN(C(=O)c3ccc(C)c(C)c3)C(C)C2)cc1C (configuration not stated)
 : 0.9% | i | 2.5e-09 | i | 12%
- Cc1noc(C)c1CSc1nc2[nH]ncc2c(=O)n1-c1ccccc1
 : -0.3% | i | 6.6e-08 | i | x
- COc1cc(S(=O)(=O)NCCN2CCOCC2)c(OC)cc1Cl
 : -1.5% | i | 1.6e-08 | i | -4%
- COc1ccc(C(=O)N2CCC3(CCCN(Cc4nccs4)C3)CC2)cc1
 : 0.5% | i | 2.7e-08 | i | u
- CCOC(=O)N1CCN(C(=O)c2ccc(S(=O)(=O)c3ccc(C)cc3)c(NC(C)=O)c2)CC1
 : -1.1% | i | 1.5e-08 | i | 4%
- CCOC(=O)c1sc2nc(N3CCCC3)c3c(c2c1N)CC(C)(C)OC3
 : 2.5% | i | 3e-08 | i | u
- Cc1cc(Nc2ccccc2)nc(-c2ccccc2O)n1
 : 2.0% | i | 4.6e-09 | i | -23%
- CCc1nnc(NC(=O)c2ccc(S(=O)(=O)N3CCN(Cc4ccccc4)CC3)cc2)s1
 : 0.3% | i | 4.3e-08 | i | 19%
- COc1ccc(/C(O)=C2/C(=O)C(=O)N(CC3CCCO3)C2c2cccc(OC)c2)cc1 (configuration not stated)
 : -0.9% | i | 4.2e-09 | i | -5%
- N[C@@H](C(=O)O)c1ccc(O)c(C(=O)O)c1
 : -2.3% | x | x | x | 6%
- COc1ccc(N(CC(=O)N2CC=C(c3ccccc3)CC2)S(=O)(=O)c2c(C)noc2C)cc1
 : 0.3% | x | x | x | 5%
- Cc1cc(Cl)cc2c1NC(=O)[C@]21[C@@H]2C(=O)N(Cc3ccccc3)C(=O)[C@@H]2[C@@H]2CCCN21
 : 0.9% | i | 4.5e-08 | i | 19%
- O=C(CCCCCN1C(=O)c2ccccc2C1=O)NCc1ccco1
 : 0.6% | i | 6.8e-09 | i | -4%
- CCN1CCCC1CNC(=O)Cn1cccc1C(=O)c1ccccc1 (configuration not stated)
 : 0.0% | i | 1.5e-08 | i | -3%[11.4 µM]
- CCc1cc2c(=O)c(-c3nc4ccccc4[nH]3)coc2c(CN2CCCC(C)C2)c1O (configuration not stated)
 : 1.9% | x | x | x | u
- O=C(Cn1cnc2c(nnn2Cc2ccc(Cl)cc2)c1=O)N1CCN(c2ccccc2)CC1
 : 2.2% | x | x | x | 20%
- O=C(NCCC1=CCCCC1)C1CCCN(S(=O)(=O)c2cnc[nH]2)C1 (configuration not stated)
 : -0.3% | x | x | x | 6%
- Clc1ccccc1-c1nc(Nc2ccncc2)c2ccccc2n1
 : 4.2% | i | 3.6e-08 | i | 6%
- CCOC(=O)C1CCCN(CC(=O)Nc2c(C(=O)OC)[nH]c3ccc(C)cc23)C1 (configuration not stated)
 : 0.2% | i | 1e-09 | i | 0%
- O=c1[nH]c(=O)n(CCOc2ccc(Cl)cc2)cc1Br
 : 0.0% | i | 1e-09 | i | 1%
- CCOC(=O)CS(=O)(=O)c1nc(-c2ccccc2)cc(C(F)(F)F)n1
 : 0.6% | i | 1.5e-08 | i | 10%
- CCS(=O)(=O)N1CCN(CC2CC3C=CC2C3)CC1 (configuration not stated)
 : -1.2% | x | x | x | 7%
- OC(CCCN1CCC(O)(c2ccc(Cl)cc2)CC1)c1ccc(F)cc1 (configuration not stated)
 : x | i | 4.6e-09 | i | x
- Cc1cccc(-c2c3c(=O)n(C)c(=O)n(C)c3c3cccnn23)c1
 : 2.8% | i | 1e-09 | i | -1%
- O=C(NCc1cccnc1)c1ccc2c(c1)OCO2
 : 1.1% | i | 1.2e-08 | i | 5%
- CN(C)[C@@H]1C(=O)C(C(N)=O)=C(O)[C@]2(O)C(=O)C3=C(O)c4c(O)ccc(Cl)c4[C@H](O)[C@H]3C[C@@H]12
 : 11%[25.7 µM] | i | 2.3e-09&1.3e-08 | i | 24%[25.6 µM]
- CCc1cc2c(NC(C(=O)O)C(C)C)ncnc2s1 (configuration not stated)
 : -3.3% | i | 1e-09 | i | 1%
- N[C@H](CCCC(=O)O)C(=O)O
 : 0.9% | i | 1.4e-08 | i | x
- O=C(NCCN1CCOCC1)c1cc(-c2cccs2)on1
 : 2.2% | i | 1.6e-09 | i | x
- CCOC(=O)c1sc2nc(SCC#N)n(CC3CCCO3)c(=O)c2c1C (configuration not stated)
 : 3.0% | i | 6.1e-09 | i | u
- CCc1ccccc1NS(=O)(=O)c1ccc2[nH]cc(C(=O)NCC3CCCO3)c(=O)c2c1 (configuration not stated)
 : -0.5% | i | 2e-08 | i | -2%
- COc1ccc(N2CC(C(=O)NCCCN3CCOCC3)CC2=O)cc1 (configuration not stated)
 : -0.6% | x | x | x | 3%[11.4 µM]
- CCOC(=O)N1CCN(C(=O)CN(c2cccc(C)c2)S(=O)(=O)c2ccccc2)CC1
 : -0.8% | x | x | x | 13%
- CCN(CCCNC(=O)C1CCCN(S(=O)(=O)CC)C1)c1cccc(C)c1 (configuration not stated)
 : -0.7% | i | 1.3e-08 | i | 0%
- CC(=O)CC1OC(=O)C(Br)=C1NCc1ccccc1 (configuration not stated)
 : 1.5% | i | 1e-09 | i | -3%
- COc1ccccc1-c1nnc(SCC(=O)OC(C)C)o1
 : 3.0% | i | 2.4e-08 | i | 5%
- O=C(O)C1Cc2c([nH]c3ccccc23)C(c2ccc3c(c2)OCO3)N1 (configuration not stated)
 : 9.3% | i | 5.9e-08 | i | -11%
- CN(C)c1cccc2c(S(=O)(=O)Nc3ccccn3)cccc12
 : -0.2% | i | 1e-09 | i | u
- COc1cccc(-n2nnc3c(=O)n(CC(=O)N4CCC(Cc5ccccc5)CC4)cnc32)c1
 : -1.4% | i | 2.6e-09 | i | 22%
- Cc1ccc(S(=O)(=O)N2CCCCC2C(=O)NCc2ccco2)cc1 (configuration not stated)
 : 0.0% | i | 6.4e-08 | i | 16µM*
- CCOC(=O)N1CCN(S(=O)(=O)c2cc(Br)cc3c2N(C(=O)C2CC2)CC3)CC1
 : 0.9% | i | 1e-09 | i | 29%[11.4 µM]
- O=S(=O)(NC1CC1)c1cccc(S(=O)(=O)N2CCCC2)c1
 : 0.9% | i | 4.4e-08 | i | -2%
- CCn1cc(C(=O)OCc2cccc(Br)c2)c(=O)c2ccc(C)nc21
 : -0.7% | i | 1.6e-08 | i | u
- COc1ccc(S(=O)(=O)N2CCC(C(=O)Nc3ccccc3C)CC2)c2cccnc12
 : 0.0% | i | 2.5e-08 | i | -2%
- CCCn1c(NC(=O)c2ccco2)nc2ccccc21
 : -0.9% | x | x | x | 16%
- Cn1nc(C(=O)NCC2CCCO2)c2ccccc2c1=O (configuration not stated)
 : 1.3% | i | 3.6e-09 | i | 1%
- CC(=NCc1ccco1)c1c(O)n(C2CCCCC2)c(=O)[nH]c1=O
 : 1.5% | i | 2.8e-08 | i | 5%
- CC(C)(C)C1CCC(OC(=O)c2ccncc2)CC1 (configuration not stated)
 : -2.5% | i | 1e-09 | i | 5%
- CN(C)S(=O)(=O)N(CC(=O)Nc1ccccc1C(F)(F)F)c1ccccc1
 : -0.9% | i | 3.7e-08 | i | 19%
- COc1cccc(CNCC(=O)N2C(C)CCCC2C)c1 (configuration not stated)
 : -0.8% | i | 1.1e-08 | i | 2%
- COc1ccc(-n2c(C)c(C(C)=O)c(C(C)=O)c2C)cc1OC
 : 0.6% | x | x | x | 8%
- CC(=O)Nc1cccc(NC(=O)CSc2nnc(Cc3cccn3C)n2CCc2ccccc2)c1
 : 0.6% | i | 1e-09 | i | 2%
- COc1cccc(Nc2nc(N)nc(C(F)(F)F)n2)c1
 : 0.3% | i | 2.4e-08 | i | -22%
- O=C(O)Cc1ccc(-c2ccccc2)cc1
 : 0.8%[25.7 µM] | i | 3.3e-08&2.2e-09 | i | u
- Cc1cc(N2CCOCC2)nc(NCc2ccccc2)n1
 : -0.5% | x | x | x | u
- COc1ccc(N(CC(=O)NCc2ccco2)S(C)(=O)=O)cc1
 : -0.3% | i | 1e-09 | i | -1%
- CCOC(=O)c1c(NC(=O)Cc2cccs2)sc2c1CCCC2
 : 0.4% | i | 1.3e-08 | i | 2%[11.4 µM]

Reprinted at random: four entries already listed
Results follow in this order: AID923 | Resorufin fluor | A647 autofl | A488 fluor | TSHR agonist
- Cc1cc(N2CCOCC2)nc(NCc2ccccc2)n1
 : -0.5% | x | x | x | u
- COc1cccc(CNCC(=O)N2C(C)CCCC2C)c1 (configuration not stated)
 : -0.8% | i | 1.1e-08 | i | 2%
- COc1ccc(S(=O)(=O)N2CCC(C(=O)Nc3ccccc3C)CC2)c2cccnc12
 : 0.0% | i | 2.5e-08 | i | -2%
- CN(C)S(=O)(=O)N(CC(=O)Nc1ccccc1C(F)(F)F)c1ccccc1
 : -0.9% | i | 3.7e-08 | i | 19%

(next part)
Results follow in this order: AID923 | Resorufin fluor | A647 autofl | A488 fluor | TSHR agonist
- O=C(CCC(=O)N(CC(=O)NC1CCCCC1)c1ccc2c(c1)OCO2)Nc1ccccn1
 : 1.2% | i | 1e-09 | i | 4%
- COc1cc(CC(=O)Nc2sccc2C(N)=O)cc(OC)c1OC
 : 0.2% | i | 1.6e-08 | i | 8%
- COc1ccc(/C(O)=C2\C(=O)C(=O)N(CCN3CCOCC3)C2c2ccccc2OC)cc1 (configuration not stated)
 : x | i | 1e-09 | i | x
- COc1ccc(-c2nc(C3CCCCC3)no2)cc1OC
 : -0.1% | i | 2.1e-08 | i | 0%
- Cc1ccccc1NC(=O)C1CCCN1C(=O)NC1CCCCC1 (configuration not stated)
 : 1.1% | i | 1.3e-08 | i | u
- CC(C)C(=O)Nc1cc(C(F)(F)F)ccc1N1CCOCC1
 : -0.3% | i | 1.2e-09 | i | 12%
- CCCn1c(=O)c2ccccc2n2c(SCc3cc(=O)n4ccsc4n3)nnc12
 : 0.8% | i | 1e-09 | i | u
- O=C(c1cc2cc(Cl)cc(Cl)c2oc1=O)N1CCOCC1
 : 0.4% | i | 2.6e-09 | i | -1%
- CCS(=O)(=O)c1ccc(NC(=O)c2ccccc2Cl)c(O)c1
 : 1.7% | i | 9.7e-09 | i | 1%
- N=c1n(CCO)c2ccccc2n1CCOc1ccccc1
 : 0.5% | i | 1e-09 | i | 9%
- CC(C)c1ccc2oc(=O)cc(CN3CCN(c4ccccc4)CC3)c2c1
 : -2.1% | i | 1e-09 | i | 27%
- Cc1cccc(N2C(=O)CC(N3CCOCC3)C2=O)c1 (configuration not stated)
 : 1.0% | x | x | x | -7%
- Cc1nnc(SCC2=C(C(=O)O)N3C(=O)[C@@H](NC(=O)Cn4cnnn4)[C@@H]3SC2)s1
 : -0.2%[25.7 µM] | i | 4.7e-09&1e-09 | i | -7%[25.6 µM]
- COc1ccc(OCc2cccc(C(=O)N3CCCC3)c2)cc1
 : 0.2% | i | 1.5e-08 | i | 16%
- COc1ccc(N(CC(=O)NCCSc2ccccn2)S(C)(=O)=O)cc1Cl
 : 0.2% | x | x | x | 14%
- CC(=O)c1cccc(NC(=O)c2ccco2)c1
 : 0.3% | i | 3.4e-08 | i | -3%
- O=C(Nc1ccc(C(=O)N2CCCC2)cc1)c1ccccc1F
 : -3.8% | i | 1e-09 | i | 8%
- O=C(c1cc2n(n1)C(C(F)(F)F)CC(c1ccco1)N2)N1CCN(c2ccccn2)CC1 (configuration not stated)
 : -1.5% | i | 7.1e-09 | i | -2%
- CCOc1ccc(Cl)cc1/C=N/O
 : -1.4% | x | x | x | u
- CC1(C(=O)NCC2CC2)C=CC2(CCCCC2)N1C(=O)c1ccccc1 (configuration not stated)
 : 0.5% | x | x | x | u

High-throughput results as filed in PubChem BioAssay.
